Source: PubChem BioAssay
MARV entry inh – blocks Marburg virus binding to or entry into cells; Potency, µM (doses to about 37.8 µM), for inactives: at the highest dose activity change, negative = inhibition, most hits filed as inhibitors; actives 1.8% (n = 300,000); Marburg virus pseudotyped entry inhibition, cell reporter; control for the full effect not named in the record; about a third of the inactives were read at about 46 µM; active = well fitted inhibition curve with a large enough effect; inconclusive = small, poorly fitted or top-dose-only effect, or effect the other way; inactive = flat fitted curve, though single readings scatter; tested in HEK293 cells; about a fifth of its hits are not listed in these tables; note: % is set by controls: 0 for no effect and ±100 for the full control effect; luciferase read-out
Cruzain noTriton – inhibitors of Trypanosoma cruzi cruzain without detergent | purified cruzain, Z-FR-AMC fluorescence, no detergent | P25779 | Potency, µM, for inactives: max response, negative = inhibition, usual class: inhibitors | actives 2.3% (n = 200,000);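 note: plate controls were enzyme without inhibitor for no effect and buffer without enzyme for full effect; nearly all actives have a fitted effect of over 40% in size; top concentration of the series not given in the record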
Target sequence (P25779 123-467 limits assumed): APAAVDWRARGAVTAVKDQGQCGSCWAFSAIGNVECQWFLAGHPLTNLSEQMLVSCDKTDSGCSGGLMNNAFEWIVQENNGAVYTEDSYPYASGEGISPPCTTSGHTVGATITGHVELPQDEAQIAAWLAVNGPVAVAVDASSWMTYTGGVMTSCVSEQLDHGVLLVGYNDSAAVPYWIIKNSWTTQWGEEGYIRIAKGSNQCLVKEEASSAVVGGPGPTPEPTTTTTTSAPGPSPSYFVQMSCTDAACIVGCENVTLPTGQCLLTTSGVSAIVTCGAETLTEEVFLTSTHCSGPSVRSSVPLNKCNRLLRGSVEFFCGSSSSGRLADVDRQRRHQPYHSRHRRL
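Purified cruzain at 1.5 nM, pre-incubated 15 min with compound at room temperature in 100 mM sodium acetate pH 5.5, 5 mM DTT, 0.00005% Triton X-100. Reaction started with 2 uM Z-FR-AMC; AMC fluorescence increase over 60 s gives rate.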
LASV entry inh – Lassa virus entry inhibition | actives 1.2% (n = 300,000) | Lassa virus pseudotype entry inhibition, cell reporter; control for the full effect not named in the record | AID 540256 | Potency, µM (highest dose often 37.9 µM), for the others: at the top dose activity change, negative = inhibition, most hits filed as inhibitors; active means well fitted inhibition curve with a large enough effect; inconclusive means small, poorly fitted or top-dose-only effect, or effect the other way; inactive means flat fitted curve, though single readings scatter; tested in HEK293 cells; note: % is set by controls: 0 for no effect and ±100 for the full control effect; nearly all actives have a fitted effect of over 50% in size; luciferase read-out
SARS PLpro yeast – SARS-CoV PLP inhibition in yeast; S. cerevisiae expressing SARS-CoV PLpro, growth rescue; control for the full effect not named in the record; Potency, µM (highest dose often 32.9 µM), inactives show top-dose activity, positive = growth rescue; actives 0.19% (n = 330,000); active means well fitted rising curve with a large enough effect; inconclusive means small, poorly fitted or top-dose-only effect; inactive means no such curve, though single readings can be large or run the other way; note: 0% is about no effect; nearly all actives have a fitted effect of over 55% in size; growth read by luminescence after 48 h
StopGo reporter – lowers the luciferase signal of an FMDV 2A StopGo reporter; human cells with a luciferase reporter of 2A StopGo recoding; control for the full effect not named in the record; Potency, µM (doses to about 57.9 µM), for inactives: top-dose signal change, negative = less light; actives 1.2% (n = 410,000); AID 1159524; active = well fitted falling curve with a large enough effect; inconclusive = small, poorly fitted or top-dose-only effect; inactive = no such curve, though single readings can be large or run the other way; tested in HEK293T cells; note: % is set by controls: 0 for no effect and ±100 for the full control effect; nearly all actives have a fitted effect of over 45% in size; luciferase light after 4 h
NS1 function inh – inhibitors of influenza NS1 protein function; S. cerevisiae slowed by influenza A NS1, growth recovery by OD600; Potency, µM (top dose mostly 46.1 µM), without a hit: at the highest dose activity, positive = more growth; actives 0.4% (n = 270,000); AID 2326; active means well fitted rising curve with a large enough effect; inconclusive means small, poorly fitted or top-dose-only effect; inactive means no such curve, though single readings can be large or run the other way; note: nearly all actives have a fitted effect of over 50% in size
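S. cerevisiae expressing influenza A NS1, grown in glucose, washed, then diluted 1:100 into pH 6.0 -URA galactose medium with 23 nl compound. Growth recovery read as OD600; NS1-free strain serves as control.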
Cruzain Triton – inhibitors of Trypanosoma cruzi cruzain with detergent. Potency, µM, for inactives: max response, negative = inhibition, most hits filed as inhibitors. P25779. actives 0.43% (n = 200,000). purified cruzain, Z-FR-AMC fluorescence, 0.01% Triton. AID 1478;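 note: plate controls were neutral wells for no effect and buffer without enzyme for full effect; nearly all actives have a fitted effect of over 40% in size; top concentration of the series not given in the record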
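Z-FR-AMC hydrolysis (2 uM substrate) by cruzain (1.5 nM) monitored kinetically at ex 360/em 450 nm after 15 min room-temperature compound exposure; 0.01% Triton X-100, pH 5.5, 5 mM DTT.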
RE007 growth inh – less growth of the S. pombe RE007 Vpr strain | S. pombe RE007 Vpr strain, BacTiter-Glo ATP luminescence, 24 h; control for the full effect not named in the record | Potency, µM (titrated, usually from 92.2 µM), for inactives: top-dose activity change, negative = less growth | actives 0.21% (n = 360,000); active = well fitted falling curve with a large enough effect; inconclusive = small, poorly fitted or top-dose-only effect; inactive = no such curve, though single readings can be large or run the other way;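 note: % is set by controls: 0 for no effect and ±100 for the full control effect; nearly all actives have a fitted effect of over 50% in size; the assay follows cell death caused by Vpr and the record does not say whether a fall means rescue or toxicity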
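Fission yeast RE007 carrying one integrated HIV-1 vpr copy, seeded at OD 0.01 in PMG+AL medium with 23 nL pinned compound. Grown 24 h at 30 degrees; viability read by BacTiter-Glo luminescence after 5 min.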
The depositor's hits bear a star; ? = inconclusive; · = no result given; & = joins results of further samples; [ ] = another dose, or the depositor's remark. Unless noted, calls come from the whole dose curve; as a rule, active = well fitted curve in the direction sought with a large enough effect; inconclusive = small, poorly fitted or top-dose-only effect, or another doubt; inactive = no such curve, though single readings can be large; an effect the other way counts as inactive or inconclusive. Potency is the fitted concentration of half-maximal effect.

SMILES	MARV entry inh	Cruzain noTriton	LASV entry inh	SARS PLpro yeast	StopGo reporter	NS1 function inh	Cruzain Triton	RE007 growth inh
CC1(C)NC(=O)N(CC(O)CN2CCCCC2)C1=O (stereo not drawn)	8%	-4%	3%	-2%	-4%	-2%	-2.8%	0%
O=C(CSc1nc(-c2ccco2)cc(C(F)(F)F)n1)NCCCn1ccnc1	-5%	12%	·	5%	-24%	-8%	-5.3%	-6%
CC(=O)N1CCN(c2ccccc2NC(=O)c2cccc3c(Cl)cccc23)CC1	·	·	·	-1%	-15%	0%	·	-5%
CC(C)Oc1ccc(NC(N)=O)cc1	13%	-7%	1%	-5%	4%	-4%	0.7%	18%
CC[C@]12C=CCN3CCC4(c5cc(Br)c(OC)cc5N(C)C4[C@@](O)(C(=O)OC)[C@@H]1OC(C)=O)C32 (stereo partly drawn)	-18%	·	-1%	-2%	-4%	-5%	·	-4%
CC(=O)c1ccc(S(=O)(=O)Nc2ccc(C(=O)NCC(c3ccccc3)N(C)C)cc2)cc1 (stereo not drawn)	?	·	-10%	-1%	12%	14%	·	5%
CCS(=O)(=O)Nc1cccc(C(=C2CCCCC2)c2cnc[nH]2)c1	?	10%	?	·	-24%	-8%	-5.7%	-2%
CN(C)C(=O)c1cc(-c2ccccc2)no1	12%[46.1 µM]	·	-2%[46.1 µM]	0%	0%	1%	·	-6%
COc1ccc(-c2noc(CSc3nc(N)c(-c4ccccc4)c(=O)[nH]3)n2)cc1OC	-6%	?	-12%	2%	-18%	-7%	-1.7%	6%
O=S1(=O)N=C(Nc2ccc(O)c(CN3CCCCC3)c2)c2ccccc21	-19%	-6%	1%	3%	·	2%	1.7%	7%
O=C(Nc1ccccc1O)c1nc(Cl)ccc1Cl	4%[46.1 µM]	·	-1%[46.1 µM]	-5%	-6%	·	·	6%
CN(C)C(=S)Nc1ccc2c(c1)OCCO2	15%[46.1 µM]	·	15%	-1%	1%	7%	·	0%
COc1ccc(N2C(=NC(=O)CC3CCCCC3)SC3CS(=O)(=O)CC32)cc1 (stereo not drawn)	·	·	·	1%	-8%	8%	·	9%
Cc1noc(C(=O)Nc2ccc3c(c2)OCO3)c1Cl	·	-3%	·	-24%	64%[activator]	-2%	-5.8%	-1%
COc1cc(Cl)c(C)cc1NC(=O)NC1COc2ccccc2C1 (stereo not drawn)	·	3%	-3%[46.1 µM]	·	0%	·	-4.0%	·
Cc1ccc(CONC(=O)c2ccccc2)cc1	8%[46.1 µM]	·	?	0%	25%	-1%	·	1%
O=C(Cc1ccc([N+](=O)[O-])cc1)OCc1c(F)cccc1Cl	-15%	·	-18%	6%	16%	-10%	·	24%
CCCCOc1ccc(C(=O)NCC(=O)NC2CC2)cc1	22%	·	-6%	11µM*	5%	·	·	10%
O=C(Nc1nnc(C2CC2)s1)c1ccco1	?	·	-1%	0%	60%[activator]	·	·	4%
CCCCc1nc2cc(C(=O)N(C)C3CCOCC3)ccc2o1	?	·	8%[46.1 µM]	0%	14%	-9%	·	-9%
Cc1cc(Br)ccc1NC(=O)c1ccc(NS(=O)(=O)c2c(C)noc2C)cc1	11%[46.1 µM]	-8%	?	·	-22%	·	0.6%	·
COc1cccc(S(=O)(=O)N2CCN(C(=O)c3ccco3)CC2)c1	?	·	-3%[46.1 µM]	0%	-21%	0%	·	0%
COCCOC1CCN(C(=O)C2CCC(=O)N(CCc3ccc(OC)cc3)C2)CC1 (stereo not drawn)	·	·	·	3%	-2%	-8%	·	-9%
COc1cccc(NC(=O)C(NC2CCCC2)c2ccccc2)c1 (stereo not drawn)	-4%	-2%	0%	-1%	-8%	-1%	1.9%	0%
Cc1cccc(-n2cnc(C(=O)O)c2)n1	5%[46.1 µM]	·	24%[46.1 µM]	1%	-8%	5%	·	12%
O=C(Nc1nnc(-c2ccncc2)o1)c1ccccc1	5%&5%[46.1 µM]	·	8%	3%	62%[activator]	·	·	2%
Cc1sc2ncn3c(C)nnc3c2c1C	6%	-11%	27%	6%	-9%	-65%	-0.5%	1%
Nn1c(SC/C=C/c2ccccc2)nnc1-c1cccnc1	-3%	-14%	13%	4%	13%	4%	1.4%	8%
CCC(=O)c1ccc(OCC(O)Cn2nc(C)c(C(C)=O)c2C)cc1 (stereo not drawn)	6%	·	16%	0%	0%	-4%	·	14%
O=c1cc(CSc2nnc(COc3cccc4ccccc34)o2)c2ccccc2[nH]1	?	·	10%	0%	-10%	1%	·	6%
CC12CCC(=O)N1C(C(=O)NCCN1C(=O)S/C(=C\c3ccccc3F)C1=O)CS2 (stereo not drawn)	-7%[46.1 µM]	·	?	-23%	-1%	·	·	-8%
COc1ccccc1NC(=O)CN1C(=O)CCS(=O)(=O)c2ccccc21	3%	0%	9%	-3%	10%	7%	-2.1%	9%
COc1cccc(N2CCN(C(=S)NCc3ccco3)CC2)c1	-11%	-11%	9%	-11%	16%	5%	2.3%	14%
Cc1ccc(-c2cc(C(F)F)nc(NCc3cccnc3)n2)cc1	?	17%	?	-39%	?	-97%	-13%	2%
O=C(N/N=C/c1ccccc1)C(=O)N/N=C/c1ccccc1	?	·	0%[46.1 µM]	-3%	4%	-13%	·	4%
Cc1cccc(NC(=S)NC(=O)/C=C/c2ccco2)c1	?	·	?	-1%	1%	15%	·	-27%
CCN(CC)S(=O)(=O)c1cc(NC(=O)COC(=O)c2sc3ccccc3c2Cl)ccc1C	6%	?	-4%	8%	-12%	25%	-1.3%	-2%
Cc1ccc(CNC(=O)CN(C)S(=O)(=O)c2cccs2)cc1	8%[46.1 µM]	·	8%	4%	24%	·	·	0%
O=C(Nc1ccc2c(c1)OCO2)c1cc(C2CC2)on1	·	-1%	·	-18%	19%	-8%	2.5%	-7%
CC1CCN(C(=O)c2ccccc2NC(=O)c2cccc(S(=O)(=O)N(C)C)c2)CC1	·	·	·	-7%	-13%	10%	·	6%
CCOc1ccc(C(=O)NCC(=O)NC(C)CCc2ccccc2)cc1OCC (stereo not drawn)	-24%[46.1 µM]	·	-1%[46.1 µM]	-2%	3%	-1%	·	-10%
COc1ccc(C(CNC(=O)CCNS(=O)(=O)c2ccccc2C(F)(F)F)N2CCOCC2)cc1 (stereo not drawn)	3%[46.1 µM]	·	10%	·	-3%	·	·	-28%
COc1ccc(COC(=O)c2ccc(S(=O)(=O)N3CCCCC3)cc2)cc1OC	-7%	·	-1%	4%	-2%	·	·	-15%
O=S(=O)(c1ccc(C(F)(F)F)cc1)N1CCN(CCc2ccccc2)CC1	?	·	-12%[46.1 µM]	0%	1%	-4%	·	-2%
COc1cc(NC(=O)c2ccc3c(SCC(=O)O)c4c(nc3c2)CCCC4)cc(OC)c1OC	14%	·	-12%	2%	-15%	·	·	-14%
N#Cc1ccc(-n2c(-c3ccccc3)nnc2-c2ccccc2)cc1C#N	?	20µM*	5%	-27%	·	?	-11%	-11%
Cc1ccc(C(=O)OCc2c(C)noc2C)cc1NC(=O)c1ccco1	6%[46.1 µM]	·	-18%[46.1 µM]	2%	4%	-5%	·	0%
O=C(C1CCCO1)N1CCC(O)(c2ccccc2)CC1 (stereo not drawn)	-12%[46.1 µM]	-2%	1%	2%	12%	-5%	6.8%	11%
CN(C)c1ccc(CNC(=O)C2CCN(S(=O)(=O)c3ccc4[nH]c(=O)ccc4c3)CC2)cc1	·	0%	0%[46.1 µM]	·	-6%	·	-3.1%	·
Cc1cccc(NC(=O)c2cc3c(=O)n(Cc4cccnc4)ccc3nc2C)c1	·	?	21%[46.1 µM]	·	-5%	·	-4.1%	·
CCOC(=O)c1nn(-c2ccc(F)cc2)c(=O)cc1OCC(=O)N1CCN(c2ccccc2)CC1	3%	·	1%	1%	-19%	·	·	47%
Cc1cccc(OCC(=O)Nc2ccc(S(=O)(=O)Nc3cc(C)nc(C)n3)cc2)c1	10%[46.1 µM]	·	1%	0%	59%[activator]	-1%	·	-13%
Cc1cccc(NC(=O)c2cccc(OC(=S)N3CCOCC3)c2)c1	-8%[46.1 µM]	·	?	-1%	0%	-22%	·	-13%
COc1cccc(-c2cc(C(=O)Nc3cccnc3)c3ccccc3n2)c1	-15%	·	?	-1%	-28%	-24%	·	26%
COc1ccc(Cl)cc1NC(=O)c1c(NCc2cccnc2)sc2c1CCCC2	·	-5%	4%[46.1 µM]	·	-6%	·	-5.4%	·
COc1ccc(C2N3CC4(C)CN2CC(C)(C3)C4=O)cc1OC (stereo not drawn)	·	-3%	·	-7%	-13%	2%	-0.3%	-1%
CC1=CC(c2ccccc2)n2nc(N3C(=O)C4CC=CCC4C3=O)nc2N1 (stereo not drawn)	-4%	-1%	-10%	0%	7%	1%	-6.0%	10%
CCN1CCN(CC(=O)Nc2cc(C(F)(F)F)ccc2OCCOC)CC1	·	·	·	0%	-15%	-3%	·	-11%
CCCCCCNC(=O)N[C@@H](C(=O)NCCC[C@H]1CN2C(=NC[C@@H]2Cc2ccccc2)N1CCc1cccc(OC)c1)C(C)C	·	·	·	-7%	0%	-6%	·	?
CCOc1ccccc1NC(=O)Nn1cnnc1	-1%[46.1 µM]	·	3%[46.1 µM]	-7%	-4%	4%	·	22%

Continued.
SMILES	MARV entry inh	Cruzain noTriton	LASV entry inh	SARS PLpro yeast	StopGo reporter	NS1 function inh	Cruzain Triton	RE007 growth inh
CC(=O)Nc1ccc(S(=O)(=O)N(C)CC(=O)OCC(=O)N(CC(C)C)C2CCS(=O)(=O)C2)cc1 (stereo not drawn)	20%	·	13%	-4%	-9%	·	·	-6%
O=S(=O)(/N=C/N1CCOCC1)c1ccc(Cl)cc1	20%	0%	-11%	11%	5%	?	1.2%	3%
COc1ccc(C(=O)N/C(=C\c2cccc3ccccc23)C(=O)N2CCN(C)CC2)cc1OC	?	·	-3%[46.1 µM]	0%	-10%	·	·	8%
CC(=O)Nc1ccc(S(=O)(=O)NCc2ccc(C(=O)N3CCOCC3)cc2)cc1	2%[46.1 µM]	·	24%[46.1 µM]	3%	2%	5%	·	3%
O=C(O)c1cccc(CSc2nc(-c3ccccc3)cc(C(F)(F)F)n2)c1	10%	18%	?	-8%	-2%	7%	-21%	-14%
